Source: PubChem BioAssay (National Center for Advancing Translational Sciences (NCATS))
MARV entry inh – Marburg virus entry inhibition | Marburg virus pseudotyped entry inhibition, cell reporter; control for the full effect not named in the record; about a third of the inactives were read at about 46 µM | Potency, µM (titrated, usually from 37.8 µM), without a hit: at the top dose activity change, negative = inhibition, actives largely listed as inhibitors | actives 1.8% (n = 300,000) | AID 540276; active = well fitted inhibition curve with a large enough effect; inconclusive = small, poorly fitted or top-dose-only effect, or effect the other way; inactive = flat fitted curve, though single readings scatter; tested in HEK293 cells; about a fifth of its hits are not listed in these tables; also: % is scaled to controls: 0 for no effect and ±100 for the full control effect; luciferase read-out
RE007 growth inh – less growth of the S. pombe RE007 Vpr strain; S. pombe RE007 Vpr strain, BacTiter-Glo ATP luminescence, 24 h; control for the full effect not named in the record; Potency, µM (doses to about 92.2 µM), for the others: top-dose activity change, negative = less growth; actives 0.21% (n = 360,000); active = well fitted falling curve with a large enough effect; inconclusive = small, poorly fitted or top-dose-only effect; inactive = no such curve, though single readings can be large or run the other way;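 also: % is scaled to controls: 0 for no effect and ±100 for the full control effect; nearly all actives have a fitted effect of over 50% in size; the assay follows cell death caused by Vpr and the record does not say whether a fall means rescue or toxicity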
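Fission yeast RE007 carrying one integrated HIV-1 vpr copy, seeded at OD 0.01 in PMG+AL medium with 23 nL pinned compound. Grown 24 h at 30 degrees; viability read by BacTiter-Glo luminescence after 5 min.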
Cruzain noTriton – blocks cruzain activity in detergent-free assay; purified cruzain, Z-FR-AMC fluorescence, no detergent; AID 1476; Potency, µM, for the others: max response, negative = inhibition, most hits filed as inhibitors; actives 2.3% (n = 200,000); P25779; active = well fitted curve in the direction sought with a large enough effect; inconclusive = small, poorly fitted or top-dose-only effect, or another doubt; inactive = no such curve, though single readings can be large; an effect the other way counts as inactive or inconclusive;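 also: plate controls were enzyme without inhibitor for no effect and buffer without enzyme for full effect; nearly all actives have a fitted effect of over 40% in size; top concentration of the series not given in the record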
Target sequence (P25779 123-467 limits assumed): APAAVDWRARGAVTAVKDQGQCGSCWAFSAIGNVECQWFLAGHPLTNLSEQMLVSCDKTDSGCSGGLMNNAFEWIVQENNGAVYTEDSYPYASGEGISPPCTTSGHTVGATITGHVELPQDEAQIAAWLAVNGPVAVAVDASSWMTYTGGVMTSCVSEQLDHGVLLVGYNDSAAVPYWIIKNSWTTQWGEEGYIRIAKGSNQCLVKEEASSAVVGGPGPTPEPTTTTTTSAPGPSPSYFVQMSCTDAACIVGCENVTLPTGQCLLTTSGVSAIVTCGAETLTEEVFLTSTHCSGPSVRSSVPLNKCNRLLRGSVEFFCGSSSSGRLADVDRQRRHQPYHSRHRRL
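Purified cruzain at 1.5 nM, pre-incubated 15 min with compound at room temperature in 100 mM sodium acetate pH 5.5, 5 mM DTT, 0.00005% Triton X-100. Reaction started with 2 uM Z-FR-AMC; AMC fluorescence increase over 60 s gives rate.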
Cruzain Triton – inhibitors of Trypanosoma cruzi cruzain with detergent; AID 1478; actives 0.43% (n = 200,000); Potency, µM, for the others: max response, negative = inhibition, most hits filed as inhibitors; purified cruzain, Z-FR-AMC fluorescence, 0.01% Triton; active = well fitted curve in the direction sought with a large enough effect; inconclusive = small, poorly fitted or top-dose-only effect, or another doubt; inactive = no such curve, though single readings can be large; an effect the other way counts as inactive or inconclusive;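 also: plate controls were neutral wells for no effect and buffer without enzyme for full effect; nearly all actives have a fitted effect of over 40% in size; top concentration of the series not given in the record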
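In this qHTS format, compounds are incubated with 1.5 nM cruzain for 15 min at room temperature before 2 uM Z-FR-AMC is added. Release of AMC is followed at 360/450 nm, and progress is taken as the 60 s fluorescence difference.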
Lassa entry inh – inhibitors of Lassa virus binding or cell entry; Potency, µM (doses to about 37.9 µM), for the others: at the top dose activity change, negative = inhibition, hits mostly inhibitors; actives 1.2% (n = 300,000); AID 540256; Lassa virus pseudotype entry inhibition, cell reporter; control for the full effect not named in the record; active means well fitted inhibition curve with a large enough effect; inconclusive means small, poorly fitted or top-dose-only effect, or effect the other way; inactive means flat fitted curve, though single readings scatter; tested in HEK293 cells; also: % is scaled to controls: 0 for no effect and ±100 for the full control effect; nearly all actives have a fitted effect of over 50% in size; luciferase read-out
2A StopGo – lowers the luciferase signal of an FMDV 2A StopGo reporter; AID 1159524; Potency, µM (titrated, usually from 57.9 µM), for inactives: at the highest dose signal change, negative = less light; human cells with a luciferase reporter of 2A StopGo recoding; control for the full effect not named in the record; actives 1.2% (n = 410,000); active = well fitted falling curve with a large enough effect; inconclusive = small, poorly fitted or top-dose-only effect; inactive = no such curve, though single readings can be large or run the other way; tested in HEK293T cells; also: % is scaled to controls: 0 for no effect and ±100 for the full control effect; nearly all actives have a fitted effect of over 45% in size; luciferase light after 4 h
NS1 inh – influenza NS1 inhibition | S. cerevisiae slowed by influenza A NS1, growth recovery by OD600 | Potency, µM (top dose mostly 46.1 µM), for the others: at the highest dose activity, positive = more growth | actives 0.4% (n = 270,000); also: actives are rising curves; nearly all actives have a fitted effect of over 50% in size
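S. cerevisiae expressing influenza A NS1, grown in glucose, washed, then diluted 1:100 into pH 6.0 -URA galactose medium with 23 nl compound. Growth recovery read as OD600; NS1-free strain serves as control.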
SARS PLP yeast – inhibitors of SARS-CoV papain-like protease in yeast; Potency, µM (titrated, usually from 32.9 µM), for the others: at the highest dose activity, positive = growth rescue; actives 0.19% (n = 330,000); S. cerevisiae expressing SARS-CoV PLpro, growth rescue; control for the full effect not named in the record; also: 0% is about no effect; nearly all actives have a fitted effect of over 55% in size; growth read by luminescence after 48 h
Numbers without * were called inactive; [ ] = dose if it differs, or a comment. Unless noted, calls follow the shape of the dose curve; as a rule, active means well fitted rising curve with a large enough effect; inconclusive means small, poorly fitted or top-dose-only effect; inactive means no such curve, though single readings can be large or run the other way. Potency is read from the fitted curve at half-maximal effect. This is a random part of the collection; about 4.7% have a hit in one of these screens.

For O=C(NN1C(=O)CSC1=S)C(=O)NN1C(=O)CSC1=S the results were MARV entry inh 28%[46.1 µM], RE007 growth inh 8%, Lassa entry inh -9%, 2A StopGo 5% and SARS PLP yeast 13%.
`CCCOc1ccc(C(=O)Nc2ccc3nn(-c4ccc(OC)c(Cl)c4)nc3c2)cc1` gave Cruzain noTriton 18%, Cruzain Triton -1.2%, Lassa entry inh 8%[46.1 µM] and 2A StopGo 0%.
Screening CC(NC(=O)c1ccco1)C(=O)NC(C)c1cc(F)c(Cl)cc1Cl (stereo not given) returned MARV entry inh 14%[46.1 µM], RE007 growth inh 5%, Lassa entry inh 3%[46.1 µM], 2A StopGo 4%, NS1 inh -8% and SARS PLP yeast 1%.
For COc1ccc(OC)c(NC(=O)N[C@H](Cc2ccccc2)C(=O)NN)c1 the results were MARV entry inh 27%, RE007 growth inh 8%, Lassa entry inh 16%, 2A StopGo -9%, NS1 inh 10% and SARS PLP yeast -1%.
For CC(C)N(Cc1nc(-c2ccccc2)no1)C(=O)C(C)(C)C the results were MARV entry inh 4%, RE007 growth inh -1%, Cruzain noTriton 7%, Cruzain Triton -0.3%, Lassa entry inh 13%, 2A StopGo -8%, NS1 inh -14% and SARS PLP yeast 7%.
Screening CCOC(=O)c1c(C)[nH]c(C(=O)OCC(=O)NCCc2ccc(OCC)c(OCC)c2)c1C returned MARV entry inh -1%, RE007 growth inh -5%, Lassa entry inh -13%, 2A StopGo -12% and SARS PLP yeast 5%.
Screening Cc1cc(NC(=O)COC(=O)CCNS(=O)(=O)c2ccccc2)n(-c2ccccc2)n1 returned MARV entry inh 11%, RE007 growth inh -13%, Lassa entry inh 8%, 2A StopGo -5% and SARS PLP yeast -2%.
CCCNc1nc2c(c(=O)n(C)c(=O)n2C)n1Cc1cccc(C)c1 was read as MARV entry inh -18%, RE007 growth inh 18%, Cruzain noTriton 4%, Cruzain Triton 1.9%, Lassa entry inh -25%, 2A StopGo inconclusive, NS1 inh -6% and SARS PLP yeast 19%.
COC(=O)c1ccc(C2/C(=C(\O)c3cccc(OC)c3)C(=O)C(=O)N2CCCN(C)C)cc1 (stereo not given) was read as MARV entry inh inconclusive, RE007 growth inh -2%, Cruzain noTriton -2%, Cruzain Triton -4.6%, Lassa entry inh -2%, 2A StopGo -13%, NS1 inh 15% and SARS PLP yeast -3%.
`CCCCN(C(=O)CN1CC(C)OC(C)C1)c1c(N)n(CC(C)C)c(=O)[nH]c1=O` (stereo not given) gave MARV entry inh 14%, RE007 growth inh -3%, Cruzain noTriton -5%, Cruzain Triton 2.1%, Lassa entry inh -1%, 2A StopGo -15%, NS1 inh 4% and SARS PLP yeast 30%.
CCCCn1c(SCC2CCCO2)nc2cc(S(N)(=O)=O)ccc21 (stereo not given) was read as MARV entry inh inconclusive, RE007 growth inh 15%, Cruzain noTriton 3%, Cruzain Triton 4.5%, Lassa entry inh -21%, 2A StopGo -23%, NS1 inh -1% and SARS PLP yeast -10%.
CCOC(=O)c1c(NC(=O)c2cc(=O)c3c(C)cc(C)cc3o2)sc(C)c1C was read as MARV entry inh 9%[46.1 µM], Cruzain noTriton -3%, Cruzain Triton -1.9%, Lassa entry inh inconclusive and 2A StopGo -17%.
CCC(=O)NNc1ncnc2c1cnn2-c1ccc(C)c(Cl)c1 was read as Cruzain noTriton -3%, Cruzain Triton 0.1%, Lassa entry inh inconclusive and 2A StopGo 6%.
`CC(CC(=O)Nc1ccncc1)c1ccccc1` (stereo not given) gave MARV entry inh -1%, RE007 growth inh 14%, Cruzain noTriton 8%, Cruzain Triton 3.4%, Lassa entry inh 8%, 2A StopGo -29%, NS1 inh -2% and SARS PLP yeast 0%.
COc1ccc(CCNC(=O)CCN2C(=O)C3CC=CCC3C2=O)cc1OC (stereo not given) was read as MARV entry inh 1%, RE007 growth inh 0%, Cruzain noTriton 14%, Cruzain Triton -1.6%, Lassa entry inh 16%, 2A StopGo -3%, NS1 inh 1% and SARS PLP yeast 13%.
O=c1c2cc(N3CCOCC3)ccc2[nH]c(=S)n1CCCN1CCCCCC1 was read as MARV entry inh 18µM*, RE007 growth inh 20%[3.69 µM], Cruzain noTriton -17%, Cruzain Triton -7.6%, Lassa entry inh -2%, 2A StopGo -12%, NS1 inh 13% and SARS PLP yeast 3%.
Screening Cc1ccc(C(=O)OC(C)C(=O)NC2CCCCC2C)cc1S(=O)(=O)N1CCCCC1 (stereo not given) returned RE007 growth inh 8%, 2A StopGo inconclusive, NS1 inh 11% and SARS PLP yeast -2%.
Screening CCC(=O)Nc1ccc2ccccc2c1 returned MARV entry inh inconclusive, RE007 growth inh -4%, Cruzain noTriton 3%, Cruzain Triton -1.4%, Lassa entry inh 8%, 2A StopGo 26%, NS1 inh 1% and SARS PLP yeast 7%.
Screening NS(=O)(=O)c1ccc2nc(NC(=O)Nc3ccccc3F)sc2c1 returned MARV entry inh inconclusive, RE007 growth inh 11%, Lassa entry inh inconclusive, 2A StopGo -14%, NS1 inh -7% and SARS PLP yeast 1%.
Screening COc1cccc(CC2(CO)CCCN(Cc3ccc(CO)o3)C2)c1 (stereo not given) returned MARV entry inh -24%[46.1 µM], RE007 growth inh 3%, Lassa entry inh -9%[46.1 µM], 2A StopGo -10%, NS1 inh 0% and SARS PLP yeast 2%.
`O=C(CC1OC(=O)c2ccccc21)Nc1ccccc1N1CCOCC1` (stereo not given) gave MARV entry inh 29%, RE007 growth inh -13%, Cruzain noTriton -4%, Cruzain Triton 1.4%, Lassa entry inh 7%, 2A StopGo -23%, NS1 inh 2% and SARS PLP yeast 3%.
COc1ccc(/C=C/C(=O)NC(=S)Nc2cc([N+](=O)[O-])ccc2O)cc1OC was read as RE007 growth inh -1%, 2A StopGo -2%, NS1 inh 4% and SARS PLP yeast 0%.
CCOc1ccc(C2C(C(=O)Nc3ccc(OC)cc3)=C(C)Nc3nc(CCCO)nn32)cc1 (stereo not given) was read as Cruzain noTriton -6%, Cruzain Triton 0.3%, Lassa entry inh inconclusive and 2A StopGo -4%.
Cc1ccc2[nH]c(=O)c3cc(C(=O)NC4CCC(C)CC4)sc3c2c1 (stereo not given) was read as MARV entry inh 2%[46.1 µM], Cruzain noTriton 10%, Cruzain Triton -2.8% and 2A StopGo -5%.
CC(C)Oc1ccc(C(=O)NCCCNC(=O)c2ccccn2)cc1 was read as MARV entry inh 20%[46.1 µM], RE007 growth inh 8%, Lassa entry inh 0%[46.1 µM], 2A StopGo 64%[activator], NS1 inh -14% and SARS PLP yeast -3%.
For Cc1ccccc1CN1C(=O)CSc2ccc(C(=O)N3CCOCC3)cc21 the results were MARV entry inh inconclusive, RE007 growth inh 17%, Cruzain noTriton -1%, Cruzain Triton -2.6%, Lassa entry inh -6%, 2A StopGo -18%, NS1 inh 6% and SARS PLP yeast 1%.
Screening Nc1nc2ccccc2nc1N1CCCC1 returned MARV entry inh 16%, RE007 growth inh -22%, Cruzain noTriton -6%, Cruzain Triton -3.4%, Lassa entry inh 7%, 2A StopGo 37%[activator], NS1 inh -6% and SARS PLP yeast 0%.
For Cc1cc2ccccc2nc1SCC(=O)N1c2ccccc2CC1C (stereo not given) the results were MARV entry inh inconclusive, RE007 growth inh -7%, Cruzain noTriton -4%, Cruzain Triton -5.8%, Lassa entry inh -24%, 2A StopGo -21%, NS1 inh -2% and SARS PLP yeast 6%.
For CCC(C(=O)OC)n1cnc2c(nnn2-c2ccccc2)c1=O (stereo not given) the results were RE007 growth inh 4%, 2A StopGo -22%, NS1 inh 5% and SARS PLP yeast -1%.
CN1CCN(c2ccc(NC(=O)CN3CCOCC3)cc2F)CC1 was read as MARV entry inh inconclusive, RE007 growth inh 6%, Lassa entry inh 3%, 2A StopGo -3% and SARS PLP yeast 1%.
CCSc1nnc(Cn2c(=O)sc3ccccc32)n1-c1ccccc1C was read as RE007 growth inh -8%, Cruzain noTriton -3%, Cruzain Triton -2.4%, 2A StopGo -18%, NS1 inh -29% and SARS PLP yeast 13%.
For CCCN(CCC)CCCNC(=O)c1cc2c(=O)[nH]c3ccccc3c2n1C the results were MARV entry inh inconclusive, RE007 growth inh 1%, Cruzain noTriton -4%, Cruzain Triton -5.6%, Lassa entry inh 9%[46.1 µM], 2A StopGo inconclusive and SARS PLP yeast 3%.
O=C(NCc1ccccn1)Nc1cc(Cl)cc(Cl)c1 was read as RE007 growth inh 2%, 2A StopGo 2%, NS1 inh -69% and SARS PLP yeast 3%.
CCc1ccc(-c2n[nH]c(=O)c3ccccc23)cc1 was read as MARV entry inh -14%[46.1 µM], RE007 growth inh 18%, Lassa entry inh -11%[46.1 µM], 2A StopGo -29%, NS1 inh -2% and SARS PLP yeast -2%.
For O=C(OCCN1C(=O)c2ccccc2C1=O)c1cccs1 the results were MARV entry inh 5%, RE007 growth inh -4%, Cruzain noTriton -3%, Cruzain Triton 3.1%, Lassa entry inh 2%, 2A StopGo 39%[activator], NS1 inh -15% and SARS PLP yeast -5%.
For Cc1ccc(NC(=O)Cn2nnc3ccccc3c2=O)cc1 the results were MARV entry inh 5%, RE007 growth inh 17%, Lassa entry inh 12%, 2A StopGo 60%[activator] and SARS PLP yeast 2%.
Screening CCc1c(C)nc2ncnn2c1NCCc1ccc(Cl)cc1 returned MARV entry inh inconclusive, RE007 growth inh 17%, Lassa entry inh inconclusive, 2A StopGo 14µM*, NS1 inh -8% and SARS PLP yeast -2%.
Cc1cc(C)n2nc(CNS(=O)(=O)c3ccc([N+](=O)[O-])cc3)nc2n1 was read as RE007 growth inh 13%, 2A StopGo -9%, NS1 inh 9% and SARS PLP yeast 10%.
Screening C#Cc1ccc([C@@H]2C=C(C(=O)N3CCN(Cc4ccc5c(c4)OCO5)CC3)O[C@H](OCCCCO)C2)cc1 returned RE007 growth inh -16%, 2A StopGo -21%, NS1 inh -5% and SARS PLP yeast 0%.
COc1ccc(CC(NC(C)=O)C(=O)N2CCN(C(=O)Nc3cccc(F)c3)CC2)cc1OC (stereo not given) was read as RE007 growth inh 16%, 2A StopGo -3%, NS1 inh 1% and SARS PLP yeast 0%.
